Screening data: PubChem BioAssay, ICCB-Longwood Screening Facility, Harvard Medical School
S aureus helic – blocks Staphylococcus aureus DNA helicase. purified S. aureus helicase, fluorescence unwinding assay; about half of the hits fall short of the stated cut. inhibition, %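 (tested at about 80 µM)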. actives 0.05% (n = 120,000). AID 485395;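 active means both duplicates at 50% or more, or one of them with a favoured structure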;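 further: 0% = mean of negative control wells and 100% = mean of positive control wells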
MgrA DNA FP – alters Staphylococcus aureus MgrA binding to DNA | fluorescence polarization | inhibition, %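 (about 10 µg/mL by stock and volumes)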 | actives 0.13% (n = 84,000) | AID 602314;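 active means above 50% in either of two replicates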;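 further: 0% = protein plus DNA without compound and 100% = DNA alone without protein; higher means less MgrA bound to DNA so lower polarization; one replicate is shown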
Active calls of the source: *; i = inactive; x = no result given.

SMILES	S aureus helic	MgrA DNA FP
Cc1cc(C)n(-c2ccc3nncn3n2)n1	-1	0.1
CCC(C(=O)Nc1ccc(S(N)(=O)=O)cc1)c1ccccc1 (stereo not drawn)	1	-2.4
Cc1cc(C)c(C(=O)N2CCCCC2C)c(C)c1 (stereo not drawn)	3	-0.7
O=C(c1csc2c1CCCC2)N1CCOCC1	23	-1.5
N#C/C(=C(/O)Cn1nc(C(=O)O)c2ccccc2c1=O)c1nc2ccccc2[nH]1	-16	x
CN(C)S(=O)(=O)c1ccc2c(c1)c(=O)c(C(=O)N1CCN(c3ccccc3)CC1)cn2C	-17	x
O=C(Nc1nc2ccc3ccccc3c2o1)c1cccs1	x	2.5
Clc1ccccc1/C=C/C=Nc1ccc(N2CCOCC2)cc1	-1	2.2
CCOC(=O)c1ccc(NC(=O)c2ccc(C)cc2)cc1	6	3.0
CCC(=O)N=c1sc2ccccc2n1C	18	-0.5
c1ccc(C2CCCN(c3ncnc4nc[nH]c34)C2)cc1 (stereo not drawn)	-5	x
O=C1c2ccccc2C(=O)N1CCCOc1ccccc1	-2	0.8
COCCOc1ccc(C(F)(F)F)cc1NC(=O)CSc1nnc(-c2ccc(F)cc2)o1	17	x
Cc1[nH]ncc1S(=O)(=O)c1ccc(Cl)cc1	x	-0.9
CCOC(=O)c1cc2occc2n1CC(=O)N1CCCCC1C (stereo not drawn)	19	-2.8
CC1CC(C)CN(C(=O)CS(=O)(=O)c2ccccc2)C1 (stereo not drawn)	10	-1.8
CCSc1nc2c([nH]1)c(=N)ncn2Cc1ccccc1	-13	x
Cc1ccc(/C(O)=C2/C(=O)C(=O)N(CC3CCCO3)C23C(=O)N(C)c2ccccc23)cc1 (stereo not drawn)	-8	-1.8
Cc1cccc(N2CCN(CCCNc3ncnc4onc(C)c34)CC2C)c1 (stereo not drawn)	-6	x
O=C(Nc1ccccc1C(=O)OCc1nc2sc3c(c2c(=O)[nH]1)CCCC3)c1ccco1	-8	x
Nc1nnc(CCC(=O)O)c(=O)[nH]1	12	x
O=S(=O)(Nc1ccc(C(O)(C(F)(F)F)C(F)(F)F)cc1)c1ccccc1	-1	0.8
CC1CCCC(C)N1C(=O)c1noc2c1CCc1ccccc1-2 (stereo not drawn)	3	x
O=C(OC1CCCCC1=O)c1ccc(F)cc1Cl (stereo not drawn)	8	x
Cc1ccc(NC(=O)CN(C)S(=O)(=O)c2ccc3c(c2)CCCC(=O)N3)cc1F	-25	x
CCOC(=O)CSc1nc2cc(Cl)ccc2s1	x	-1.4
N#CCCN1N=C(c2ccccc2)/C(=C\c2cn(CCC#N)nc2-c2ccccc2)C1=O	14	x
N#C/C(=C\c1cccs1)S(=O)(=O)c1cccs1	x	1.4
CCOC(=O)c1cnc2c(F)ccc(F)c2c1Oc1cncc(Cl)c1	x	-2.0
CCCc1nc2ccccc2n1CC(=O)N1CCc2ccccc2C1	-11	-0.8
Cc1ccccc1C1C(/C=c2/sc3nc4ccccc4n3c2=O)=C(c2ccccc2)Oc2ccccc21 (stereo not drawn)	x	-1.1
CCOC(=O)c1c(C)sc2c(C)c(C)[nH]c12	6	-2.3
Cc1ccc2c(c1)c1c(n2CCc2ccncc2)CCN(C)C1	-1	-2.9
CCCN(CCC)C(=O)C(C)Sc1nc2ccccc2c(=O)n1C (stereo not drawn)	2	-0.1
Cc1cc(N2CCCC2)nc2ccccc12	x	22
CCc1nc2sc3c(SCC(N)=O)ncnc3c2c2c1CCCC2	7	x
O=C(NCCN1CCOCC1)c1cn2ccccc2n1	13	2.4
O=C1NCCSC1c1ccccc1 (stereo not drawn)	x	-0.8
O=c1[nH]c2ccc(S(=O)(=O)N3CCCC3)cc2[nH]1	1	x
CCC1CCCCN1C1Sc2ccc(C(=O)OC)cc2NC1=O (stereo not drawn)	7	x
OCC12CC3CCC(CC(C3)C1)C2	0	x
Cc1cc(=O)[nH]c(Nc2ccc(O)cc2)n1	7	6.5
CCOc1cccc(/C=N/NC(=O)c2cccc(S(=O)(=O)N(CC)CC)c2)c1O	-25	x
CN(Cc1nc2ccccc2c(=O)[nH]1)Cc1nc2sc3c(c2c(=O)[nH]1)CCCC3	-6	x
CCc1ccccc1NC(=O)Cc1noc2ccccc12	-2	0.7
CCOc1ccccc1NC(=O)CNC(C)c1ccccc1OC (stereo not drawn)	-10	x
Fc1ccccc1Nc1ncnc2c1nnn2Cc1ccccc1	25	x
O=C(O)CCn1ccc2cc(S(=O)(=O)N3CCCC3)ccc21	-4	x
CCOC(=O)c1cc(Cl)c(O)c(Cl)c1	-11	x
CC(=O)n1c2ccccc2c2c1c1ccccc1n2C	9	2.4
N#Cc1c(C(F)(F)F)cc(-c2cccs2)nc1SCc1nc2c(oc3ccccc32)c(=O)[nH]1	-26	x
O=C(CSCc1ccccc1Cl)NCc1cccs1	6	x
CC(Oc1ccc(Cl)cc1Cl)C(=O)Nc1ccc(Cl)cc1Cl (stereo not drawn)	x	-0.8
CC(C)c1ccccc1NC(=O)COC(=O)Cc1ccccc1F	-14	-0.4
Cc1ccc(CN2CC(C(=O)N3CCOCC3)CC2=O)cc1 (stereo not drawn)	20	x
Cc1ccc(SCC(=O)NCCN2C(=O)CSC2=O)c(C)c1	17	x
CCOC(=O)C1CCN(C(=O)COC(=O)c2ccc(C#N)cc2)CC1	30	x
COc1cccc(/C(O)=C/c2nc3ccc(C(=O)N4CCN(c5ccccn5)CC4)cc3[nH]c2=O)c1	-92	x
O=C(CSCc1ccccc1)N1CCN(c2ncccn2)CC1	16	x
Cc1c(C(=O)CSc2ncccc2C(=O)O)sc2ccccc12	x	0.5

The listing continues:
SMILES	S aureus helic	MgrA DNA FP
CCCC(=O)Nc1ccc(NC(=O)c2ccc3c(c2)OCO3)cc1	3	3.7
CCOC(Cn1c(SCC(=O)NCCc2ccc(S(N)(=O)=O)cc2)nc2ccccc2c1=O)OCC	1	x
CCOC(=O)c1c(NC(=O)c2cccs2)sc(C(=O)Nc2ccccc2C(F)(F)F)c1C	x	0.3
CC(C)NC(=O)c1ccccc1NC(=O)CCS(=O)(=O)Cc1ccccc1	2	3.4
COC(=O)c1ccccc1NC(=S)NNC(=O)c1ccc([N+](=O)[O-])cc1	x	0.9
Cc1ccc(C(=O)OCC2OC(O)C(O)C2OC(=O)c2ccc(C)cc2)cc1 (stereo not drawn)	12	-4.6
O=C(/C=C/c1ccco1)NC(=S)Nc1ccccc1C(F)(F)F	-3	30
O=S(=O)(Nc1nnc(C2CC2)s1)c1ccccc1	x	-0.5
CCOc1ccc(C(CC(=O)O)NC(=O)c2c(-c3ccccc3)noc2C)cc1 (stereo not drawn)	12	-1.8
Cc1[nH]nc(-c2ccc(O)c(C)c2O)c1Oc1ccccc1	-11	x
O=C1OC/C(=C(\O)c2ccc(Cl)cc2)C1=O	7	-5.8
COc1ccc(-c2nnc(SCC(=O)N[C@H](c3nc4ccccc4[nH]3)C(C)C)o2)cc1	9	x
Cc1ccc(-c2cc(N)n[nH]2)cc1	6	-2.0
CN(CCO)S(=O)(=O)c1ccc2c(c1)C(=NO)c1cc(S(=O)(=O)N(C)CCO)ccc1-2	10	0.8
CC1(C)CC(=O)c2cc(OCC(=O)NCCCN3CCN(c4ccccc4F)CC3)ccc2O1	12	x
O=c1oc2c(ccc3ccccc32)c2c1SC(C(F)(F)F)C2 (stereo not drawn)	-33	x
CCc1ccccc1NC(=O)C1CC2C=CC1C2 (stereo not drawn)	-8	x
CC(=O)N1CCN(C(=O)Cc2csc3nc(-c4ccc(Cl)cc4)cn23)CC1	3	x
Cc1c(Cl)cccc1N=Cc1nc(-c2ccccc2)oc1O	-28	x
Cc1nc2sc(C(c3ccccc3)N3CCC(C)CC3)c(O)n2n1 (stereo not drawn)	14	0.3
O=C(CCCC(=O)Nc1ccc(F)cc1F)Nc1ccc(F)cc1F	x	-1.5
CCOc1ccc2c(O)csc2c1	7	4.6
N#Cc1c2c(c(-c3ccco3)n3c1nc1ccccc13)CCCC2	i	x
O=C(CSc1cccc[n+]1[O-])c1ccccc1F	8	x
O=C(O)Cn1ncc(=O)c2ccccc21	-24	x
O=C(c1ccncc1)N(Cc1ccccc1)Cc1ccccc1	11	x
CCC(Sc1nncn1C)C(=O)Nc1sc2c(c1C#N)CCCC2 (stereo not drawn)	11	3.2
CN1C(=O)c2ccc(-c3nc4ccccc4s3)cc2C1=O	-7	0.1
CSc1ccc(S(=O)(=O)NCc2ccccc2)cc1	5	-1.9
CC(C)(C)c1cc(C(C)(C)C)c(Br)c(C(C)(C)C)c1	x	0.0
CCSc1ccc2nnc(-c3ccc(C)cc3)n2n1	8	-1.5
O=C(Cc1ccc(S(=O)(=O)N2CCCCC2)s1)OCC(=O)c1ccccc1	6	x
CCc1cc(-c2[nH]ncc2-c2nc3ccccc3n2C)c(O)cc1O	-10	x
O=C(Nc1ccccc1)c1nnc(-c2ccccc2)o1	x	-2.3
Cc1cc(C)nc(NCC(O)CNc2ccccc2Cl)n1 (stereo not drawn)	9	-2.0
c1ccc(CNc2c3c(nc4nncn24)CCC3)cc1	13	-1.0

Part of the list above, with each value named.
structure: Cc1ccc2c(c1)c1c(n2CCc2ccncc2)CCN(C)C1
  S aureus helic = -1 | MgrA DNA FP = -2.9

structure: CCCN(CCC)C(=O)C(C)Sc1nc2ccccc2c(=O)n1C (stereo not drawn)
  S aureus helic = 2 | MgrA DNA FP = -0.1

(cont.)
SMILES	S aureus helic	MgrA DNA FP
Nc1nnc(SCC(=O)NC(=O)C2COc3ccccc3O2)s1 (stereo not drawn)	2	x
CCOC(=O)c1nc2c([nH]1)C(c1ccncc1)C(C#N)=C(N)O2 (stereo not drawn)	1	1.3
Cc1ccnc(NCc2ccc(Br)cc2)c1	3	2.8
O=C(O)[C@H]1CCCC[C@H]1C(=O)N[C@H]1CCCC[C@@H]1NC(=O)[C@H]1CCCC[C@H]1C(=O)O	10	-1.9
COc1ccc(C(=O)Oc2cccc3cccnc23)cc1OC	17	x
COc1ccccc1NC(=O)c1cc(-c2ccccc2)nc2ccccc12	x	-1.2
CCOC(=O)C1CCN(C(=O)N2c3ccccc3Sc3ccccc32)CC1	11	0.4
Cc1cc(C)cc(OCC(=O)OCC(=O)c2ccc3c(c2)NC(=O)CO3)c1	-12	x
CCN(CC)C(=O)COc1ccc(Br)cc1Cl	21	1.1
COc1ccc(OCC(=O)Nc2ccccc2C(=O)N2CCOCC2)cc1	-2	-0.9
Cc1nc(SCC(=O)N(c2ccccc2)C2CCS(=O)(=O)C2)n(CC(C)C)c1C (stereo not drawn)	-4	x
CC(=O)Nc1ccc(OCC(O)CN2CCN(c3ccc(F)cc3)CC2)cc1 (stereo not drawn)	-3	x
O=C(/C=C/c1ccc(-c2cccs2)s1)N1CCSCC1	x	1.4
COc1ccc(-c2nnc3sc(CN4CCCCC4)cn23)cc1	6	x
Cc1cccc(-n2nnnc2SCCCC(=O)c2ccccc2)c1	-2	x
O=C(O)CCc1nnc(SCc2ccc(Cl)cc2Cl)[nH]c1=O	0	x
O=C(Nc1ccc(-c2cn3cccnc3n2)cc1)C1CCCC1	10	x
CC1CCCC(C)N1CCCNC(=O)c1ccc(N2CCCC2=O)cc1 (stereo not drawn)	-43	x
COC(=O)c1ccc(N=Nc2sc3ccccc3c2O)cc1	23	3.6
COc1cc(C#N)ccc1OCC(=O)c1cc(C)n(C)c1C	0	x
Cc1ccc(S(=O)(=O)NCC(c2cccnc2)N(C)C)cc1 (stereo not drawn)	13	x
O/N=C(\C=N\O)C12CC3CC(CC(C3)C1)C2	7	0.4
CCOC(=O)c1nnc(-c2ccc(CN3CCc4ccccc4C3)cc2)o1	-29	x
COc1ccc(C2=[N+]([O-])C(C)(C)C(c3ccccc3)=N2)cc1	6	1.4
c1ccc(CCN2CNc3nc4ccccc4n3C2)cc1	-2	-0.8
Cn1cc(Br)c(NC(=O)/C=C/C(=O)O)n1	x	-4.1
CC1(C2(C)NC(=S)N(c3ccccc3)N2)COCOC1 (stereo not drawn)	-2	0.4
CC(C)Oc1ccc(CSCCN)cc1	11	-0.1
NNC(=O)c1ccc(COc2ccccc2)o1	-22	x
O=C(NCc1ccco1)Nc1cccc2ccccc12	x	-1.6

By substructure, those above with an NH in an aromatic ring
SMILES	S aureus helic	MgrA DNA FP
N#C/C(=C(/O)Cn1nc(C(=O)O)c2ccccc2c1=O)c1nc2ccccc2[nH]1	-16	x
c1ccc(C2CCCN(c3ncnc4nc[nH]c34)C2)cc1 (stereo not drawn)	-5	x
Cc1[nH]ncc1S(=O)(=O)c1ccc(Cl)cc1	x	-0.9
CCSc1nc2c([nH]1)c(=N)ncn2Cc1ccccc1	-13	x
O=C(Nc1ccccc1C(=O)OCc1nc2sc3c(c2c(=O)[nH]1)CCCC3)c1ccco1	-8	x
Nc1nnc(CCC(=O)O)c(=O)[nH]1	12	x
CCOC(=O)c1c(C)sc2c(C)c(C)[nH]c12	6	-2.3
O=c1[nH]c2ccc(S(=O)(=O)N3CCCC3)cc2[nH]1	1	x
Cc1cc(=O)[nH]c(Nc2ccc(O)cc2)n1	7	6.5
CN(Cc1nc2ccccc2c(=O)[nH]1)Cc1nc2sc3c(c2c(=O)[nH]1)CCCC3	-6	x
N#Cc1c(C(F)(F)F)cc(-c2cccs2)nc1SCc1nc2c(oc3ccccc32)c(=O)[nH]1	-26	x
COc1cccc(/C(O)=C/c2nc3ccc(C(=O)N4CCN(c5ccccn5)CC4)cc3[nH]c2=O)c1	-92	x
Cc1[nH]nc(-c2ccc(O)c(C)c2O)c1Oc1ccccc1	-11	x
COc1ccc(-c2nnc(SCC(=O)N[C@H](c3nc4ccccc4[nH]3)C(C)C)o2)cc1	9	x
Cc1ccc(-c2cc(N)n[nH]2)cc1	6	-2.0
CCc1cc(-c2[nH]ncc2-c2nc3ccccc3n2C)c(O)cc1O	-10	x
CCOC(=O)c1nc2c([nH]1)C(c1ccncc1)C(C#N)=C(N)O2 (stereo not drawn)	1	1.3
O=C(O)CCc1nnc(SCc2ccc(Cl)cc2Cl)[nH]c1=O	0	x

A portion of the library; the hit share may differ from the screen's.
